KCNQ2 inh: KCNQ2 potassium channel inhibitors, primary screen, cell-based, CHO-K1, FluxOR thallium flux, B-score (AID 2156); O88943; 20 min; hits give low values; only compounds with negative scores are shown here; some inactives read as strong as hits; B-score at 10 µM; actives 1.1% (n = 310,000);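 active means fluorescence ratio B-score at most minus 3 library SDs, with starting brightness B-score within 2 library SDs, cut at about -5.5 in these data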
Target sequence (O88943 whole entry, looked up): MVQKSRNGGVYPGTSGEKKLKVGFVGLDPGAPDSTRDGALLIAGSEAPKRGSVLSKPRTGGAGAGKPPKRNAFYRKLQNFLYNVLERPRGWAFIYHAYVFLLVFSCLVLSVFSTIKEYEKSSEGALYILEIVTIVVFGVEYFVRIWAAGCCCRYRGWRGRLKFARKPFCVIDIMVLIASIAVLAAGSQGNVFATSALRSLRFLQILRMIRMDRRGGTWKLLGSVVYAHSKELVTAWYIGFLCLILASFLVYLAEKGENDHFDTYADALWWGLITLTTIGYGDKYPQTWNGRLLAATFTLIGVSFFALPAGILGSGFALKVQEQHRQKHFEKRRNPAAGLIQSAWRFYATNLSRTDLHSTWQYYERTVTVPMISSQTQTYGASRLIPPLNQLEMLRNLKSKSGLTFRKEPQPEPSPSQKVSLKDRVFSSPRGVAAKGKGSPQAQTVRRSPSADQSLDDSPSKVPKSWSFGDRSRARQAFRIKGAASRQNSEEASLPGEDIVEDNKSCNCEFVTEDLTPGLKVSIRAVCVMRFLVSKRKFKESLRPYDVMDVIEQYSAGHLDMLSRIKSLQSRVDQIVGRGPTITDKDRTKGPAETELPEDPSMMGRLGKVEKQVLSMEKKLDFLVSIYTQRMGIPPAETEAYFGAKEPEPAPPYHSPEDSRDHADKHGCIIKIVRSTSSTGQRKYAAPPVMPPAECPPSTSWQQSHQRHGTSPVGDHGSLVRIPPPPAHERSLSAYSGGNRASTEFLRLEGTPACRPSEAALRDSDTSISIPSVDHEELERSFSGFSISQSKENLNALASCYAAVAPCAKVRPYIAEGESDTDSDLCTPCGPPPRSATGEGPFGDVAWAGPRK
KCNQ2 inh baseline: further read-out of KCNQ2 inh, marked with its call; B-score; measured here: initial fluorescence intensity artifact check;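 brightness before thallium and not channel activity; 0 = typical well and far values either way flag optical interference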
* hit, by the source's call; i = inactive. Only part of the results is shown. The share of hits here may be higher or lower than overall.

KCNQ2 inh baseline | KCNQ2 inh | SMILES
-0.15 | i | C=C(C(=O)c1ccccc1)C(c1ccccc1)C(C)C(=O)c1ccccc1 (stereo unspecified)
2.5 | i | CN(Cc1ccccc1)C(=O)COC(=O)c1ccc(S(=O)(=O)N(C)C)cc1
-1.4 | i | O=C(c1ccc2nc3ccccc3c(=O)n2c1)N1CCN(Cc2ccc3c(c2)OCO3)CC1
0.98 | i | COc1cc(/C=N/O)cc(Br)c1OCC(=O)NCc1ccccc1
1.4 | i | COc1ccc(S(=O)(=O)N2CCCOC2CNC(=O)C(=O)NCCc2ccco2)cc1OC (stereo unspecified)
-0.81 | i | CCOc1ccc(C(O)(c2ccccc2)C(CN2CCCC2)c2ccccc2)cc1 (stereo unspecified)
0.88 | i | CCCCn1c(NC(=O)c2ccc(Br)o2)c(S(=O)(=O)c2ccccc2)c2nc3ccccc3nc21
-0.69 | i | CCOC(=O)CCC(=O)Nc1ccc(S(=O)(=O)Nc2cc(OC)nc(OC)n2)cc1
-0.26 | i | CCCCNc1c(-c2ccc(OC)c(SC3CCCCC3)c2)nc2cnccn12
-0.52 | i | Cc1nn(C)c(C)c1C(C)NC(=O)c1cc(COc2cncc(Cl)c2)on1 (stereo unspecified)
0.93 | i | CSCCC(NC(=O)c1ccccc1C)C(=O)O (stereo unspecified)
0.54 | i | CN(C[C@H](Cc1ccccc1)N(C[C@H](CC1CCCCC1)N(CCc1ccccc1)N=O)N=O)N=O
-0.57 | i | Cc1cc(=O)oc2cc(OCC(=O)OCC(=O)N3CCC(C)CC3)ccc12
-1.7 | i | CCN1CCN(Cc2ccc(NC(=O)c3cc(NC(=O)c4cnnc5ccccc45)cc(OC)c3)cc2C(F)(F)F)CC1
0.62 | i | CC1(C)C2CCC(C2)C1(C)NC(=O)CNCc1cccs1 (stereo unspecified)
0.16 | i | O=C(CCCN1C(=O)/C(=C/c2cccs2)SC1=S)Nc1ccccc1O
-1.5 | i | CSc1ccc(Cl)c(C(=O)OCC(=O)NCc2ccco2)c1
-0.2 | i | O=C(CCN1CCCCC1)N=Nc1c(O)[nH]c2ccccc12
0.61 | i | O=c1c(-c2cc3ccccc3o2)[n+]([O-])c2ccccc2n1OCc1ccccn1
-0.91 | i | COc1ccc(C(=O)c2ccc(Cl)c([N+](=O)[O-])c2)cc1
-0.65 | i | CCOCCCn1c(=NC(C)=O)c(C#N)cc2c(=O)n3cccc(C)c3nc21
-0.44 | i | O=C(NC1CCS(=O)(=O)C1)c1cccc(Cl)c1 (stereo unspecified)
0.64 | i | CCC(C)(C)c1ccc(Oc2ccc(NC(=O)COC(=O)C3=COCCO3)cc2)cc1
0.66 | i | CCOC(=O)c1sc(NC(=O)CSc2nnnn2-c2ccccc2)nc1C
-0.54 | i | CC(=O)N/C(=C\c1cccc([N+](=O)[O-])c1)C(=O)NC1CCCCC1
-0.02 | i | Cc1ccc(C)c(NC(=O)CCC(=O)NNC(=S)Nc2ccccc2)c1
1.3 | i | CCOCCCNC(=S)Nc1ccc(Br)cc1Cl
1.4 | i | Cn1c2ccc(Br)cc2c2nnc(SCC(=O)O)nc21
-0.23 | i | CCC(Oc1ccccc1)C(=O)Nc1ccccc1C(=O)N1CCCCC1 (stereo unspecified)
-1.6 | i | O=C(NC1(C(F)(F)F)C(=O)Nc2c1c(=O)[nH]c(=O)n2Cc1ccco1)C1CCCCC1 (stereo unspecified)

Shown as a markdown table: part of the list above
| Molecule | KCNQ2 inh baseline | KCNQ2 inh |
| --- | --- | --- |
| O=C(CCCN1C(=O)/C(=C/c2cccs2)SC1=S)Nc1ccccc1O | 0.16 | i |
| CSc1ccc(Cl)c(C(=O)OCC(=O)NCc2ccco2)c1 | -1.5 | i |
| O=C(CCN1CCCCC1)N=Nc1c(O)[nH]c2ccccc12 | -0.2 | i |
| O=c1c(-c2cc3ccccc3o2)[n+]([O-])c2ccccc2n1OCc1ccccn1 | 0.61 | i |
| COc1ccc(C(=O)c2ccc(Cl)c([N+](=O)[O-])c2)cc1 | -0.91 | i |
| CCOCCCn1c(=NC(C)=O)c(C#N)cc2c(=O)n3cccc(C)c3nc21 | -0.65 | i |

Next section.
KCNQ2 inh baseline | KCNQ2 inh | SMILES
0.48 | i | CCC(CC)C(=O)NCCc1cc2c(C)ccc(C)c2[nH]c1=O
1.8 | i | Cc1ccc(-c2nnc(NC(=O)C3=COCCO3)o2)c(C)c1
0.08 | i | O=C(Nc1ccccc1)N(c1ccccc1)C1C=CS(=O)(=O)C1 (stereo unspecified)
2.1 | i | Cc1cccc(C)c1NC(=O)N1CCN(C2CCCCC2)CC1
1.7 | i | CCn1c(COc2ccccc2C)nnc1SCC(=O)N1CCC(C)CC1
2.2 | i | CCOC(=O)C1CCCN(C(=O)c2ccc3c(c2)N(C)C(=O)/C(=C/c2ccccc2Cl)S3)C1 (stereo unspecified)
-0.99 | i | Cc1cc(N(C)Cc2ccccc2)nc(-c2ccccc2)n1
2.9 | i | O=C(NCc1ccco1)C(=O)c1cn(CC(=O)N2CCCCC2)c2ccccc12
-1.4 | i | COc1ccc(-n2c(-c3ccccc3)cc3c2CCCC3=O)cc1
-2.3 | i | C=CCNC(=O)NC(=O)CSc1nc2cc([N+](=O)[O-])ccc2n1-c1cccc(C(F)(F)F)c1
0.75 | i | CCOc1ccc(NS(=O)(=O)c2ccc(C(=O)NCC(C)(C)N3CCOCC3)cc2)cc1
-0.23 | i | CCCOC(=O)C1C2C=CC3(CN(c4ccc(Cl)c(F)c4)C(=O)C13)O2 (stereo unspecified)
-0.05 | i | O=C(c1cc(S(=O)(=O)N2CCN(c3ccccc3)CC2)ccc1Cl)N1CCCC(C(F)(F)F)C1 (stereo unspecified)
-2.2 | i | O=C(N/N=C/c1ccccc1OC(=O)c1ccc2c(c1)OCO2)c1ccccc1
1.4 | i | Cc1cc(C(=O)OCC(=O)NC(C)c2ccccc2)c(C)o1 (stereo unspecified)

Quoted from the listing:
Value of Cc1cc(N(C)Cc2ccccc2)nc(-c2ccccc2)n1 in KCNQ2 inh baseline: -0.99
Value of O=C(NCc1ccco1)C(=O)c1cn(CC(=O)N2CCCCC2)c2ccccc12 in KCNQ2 inh baseline: 2.9
Value of O=C(c1cc(S(=O)(=O)N2CCN(c3ccccc3)CC2)ccc1Cl)N1CCCC(C(F)(F)F)C1 (stereo unspecified) in KCNQ2 inh baseline: -0.05

More entries follow.
KCNQ2 inh baseline | KCNQ2 inh | SMILES
-1.4 | i | Cc1onc(-c2ccccc2)c1C(=O)Nc1nnc(-c2ccncc2)s1
-1.3 | i | COc1ccccc1C1=NC(c2ccccc2)CN1c1ccccc1 (stereo unspecified)
-0.48 | i | COc1ccccc1NC(=O)CSc1nnc(CNC(=O)c2ccco2)n1C
0.1 | i | O=C(NCCN1CCOCC1)c1ccc(Cl)c(S(=O)(=O)N2CCOCC2)c1
-0.48 | i | CCc1ccccc1NCC(=O)Nc1ccc(Cl)c(C(F)(F)F)c1
10 | i | CC(C)c1ccc(/C=C2\Oc3c(ccc(O)c3CN3CCN(C)CC3)C2=O)cc1
-0.01 | i | O=C(NNC(=O)c1ccccc1-n1cccc1)c1ccc(Cl)cc1Cl
-0.04 | i | C=CCn1c(C)cc(C(=O)CSc2nc3ccccc3o2)c1C
0.73 | i | C/C(=N/Nc1ccnc2cc(Cl)ccc12)c1ccc(O)cc1
-0.68 | i | CCOc1ccc2ccccc2c1CNc1nnnn1CC
0.63 | i | C=CCOn1c(=O)c(-c2ccc(OC)c(OC)c2)[n+]([O-])c2ccccc21
-0.04 | i | Cc1cccc(NC(=O)C2CCN(S(=O)(=O)c3c(C)noc3/C=C/c3ccco3)CC2)n1
-0.74 | i | Nc1nc(SCC(=O)Nc2cc(-c3ccccc3)nn2-c2ccccc2)n[nH]1
1.6 | i | COc1ccc(OCC(=O)N(Cc2ccc(C)o2)C2CCS(=O)(=O)C2)cc1 (stereo unspecified)
-0.1 | i | Cc1[nH]c2ccccc2c1C(c1ccncc1)N1CCC(C)CC1 (stereo unspecified)
0.04 | i | CC(=O)c1ccc(C#CC(C)(C)O)s1
-3.2 | i | COc1ccc2cc(C(c3nnnn3C(C)(C)C)N3CCSCC3)c(=O)[nH]c2c1 (stereo unspecified)
0.52 | i | CC1CCCN(Cc2csc(N)n2)C1 (stereo unspecified)
0.93 | i | CCOC(=O)COc1c(Cl)cc(C2NC(=S)NC(c3ccccc3)=C2C(C)=O)cc1OC (stereo unspecified)
0.56 | i | Cc1ccc(-c2cc(C(=O)NCc3ccc4c(c3)OCO4)no2)cc1
0.91 | i | COCCN=C1Sc2nc3ccc(C)cc3cc2CN1Cc1cccs1
3 | i | COc1ccc(S(=O)(=O)N(C)CC(=O)Nc2ccccc2SC)cc1Cl
-0.98 | i | COc1cccc(Oc2nc(N)ncc2[N+](=O)[O-])c1
1.7 | i | CN1C(=O)CC(N2CCN(c3ccc(Cl)c(Cl)c3)CC2)C1=O (stereo unspecified)
0.01 | i | COC(=O)C1=NN(c2cccc3ccccc23)C2C(=O)N(c3ccccc3OC)C(=O)C12 (stereo unspecified)
-0.78 | i | CC(=O)c1ccc(NC(=O)CC2Nc3cccc4cccc(c34)NC2=O)cc1 (stereo unspecified)
-3.2 | i | Cc1ccc(C(=O)NC(=O)OCCn2c(C)cnc2[N+](=O)[O-])cc1
0.67 | i | CN1CCN(S(=O)(=O)c2cc(C(F)(F)F)ccc2Cl)CC1
-0.04 | i | O=[N+]([O-])c1ccc(CNc2cccc(F)c2)s1
-0.07 | i | Cc1c(NC(=O)Nc2ccc([N+](=O)[O-])cc2)c(=O)n(-c2ccccc2)n1C
-1.1 | i | COc1ccc(Cn2c(=O)oc3ccc(C)cc32)cc1OC
-0.47 | i | CCOC(=O)CN1C(=O)C(Sc2n[nH]c(-c3ccccc3)n2)CCc2ccccc21 (stereo unspecified)
-0.57 | i | O=C(Nc1cccc(Cl)c1)Nc1nc(-c2ccc(Cl)cc2)cs1
-1.1 | i | CCCc1ccc(-c2ccc(-c3noc(-c4ccncc4)n3)cc2)nc1
0.39 | i | Cc1ccc(NC(=O)N2CCC(C(=O)Nc3ccc(C)cc3C)CC2)cc1
2.5 | i | CC(C)NC(=O)CCN1C(=O)c2ccccc2Sc2ncccc21
1.1 | i | CC(=O)c1cc(C(=O)N2CCc3c([nH]c4ccccc34)C2CC(C)C)[nH]n1 (stereo unspecified)
1.3 | i | CCOC(=O)C1CCN(c2cc(=O)n(-c3ccccc3Cl)c(=O)[nH]2)CC1
-0.82 | i | O=C(Nc1nc2ccccc2[nH]1)Nc1ccccc1F
2.8 | i | CCOc1ccc(C(=O)NNC(=O)C2CC(=O)N(c3ccc(C)cc3)C2)cc1 (stereo unspecified)
0.06 | i | Cc1ccccc1C(=O)Nc1cc(S(=O)(=O)N2CCCCC2)ccc1N1CCN(C)CC1
0.43 | i | CCNC(=O)CN1C(=O)NC2(CCOc3ccccc32)C1=O (stereo unspecified)
-0.51 | i | O=C(Nc1cccnc1)c1ccccc1-c1nc(-c2ccccc2F)no1
0.34 | i | COc1ccc(CNCCCC(=O)Nc2c(Cl)ccc(C)c2Cl)cc1OC
2.7 | i | CN(C)c1ccc(C(O)P(=O)(OCc2ccccc2)c2ccc(N(C)C)cc2)cc1 (stereo unspecified)
1.9 | i | COc1cccc(CC(=S)N2CCOCC2)c1
-0.42 | i | Cc1cc(O)cc2c(=O)c3ccccc3sc12
-1.1 | i | O=C(CCCCCN1C(=O)[C@@H]2Cc3ccccc3CN2C1=O)NCCc1ccccc1
0.45 | i | Cc1cc[n+](-c2nc([O-])sc2/C=N/Nc2ccc([N+](=O)[O-])cc2)cc1
0.19 | i | O=C(Cc1cccs1)NCCc1cn2ccccc2n1
-0.23 | i | O=C(O)c1ccc(CSc2nnnn2C2CCCCC2)cc1
0.79 | i | Cc1cc(C)nc(SCC(=O)NC2=NC(=O)C(C)S2)n1 (stereo unspecified)
0.21 | i | Clc1ccc(-c2ccc(/C=N/Nc3cc(N4CCOCC4)nc(N4CCOCC4)n3)o2)cc1
-0.2 | i | COc1cc(C(=O)N/C(=C\c2cn(C)c3ccccc23)C(=O)NCCN2CCOCC2)cc(OC)c1OC
-1.9 | i | COc1cc(NC(=O)c2ccc(Br)o2)c(C(=O)O)cc1OC
-1.4 | i | C=CCN1C(=O)c2ccc(C(=O)N(C)CC(=O)Nc3cccc(F)c3)cc2C1=O
-0.91 | i | COc1ccc(-c2nn(-c3ccccc3)cc2C(=O)N2CCN(S(=O)(=O)c3cccc(F)c3)CC2)cc1
0.13 | i | C=CCOc1c(Cl)cc(CNn2cn[nH]c2=S)cc1OC
-0.31 | i | CC(C(=O)N1CC2(C)CC1CC(C)(C)C2)N1C(=O)c2ccccc2C1=O (stereo unspecified)
2.3 | i | CC(/C=N/NC(=O)c1cnccn1)=C\c1ccco1

A second format for some results above:
smiles | KCNQ2 inh baseline | KCNQ2 inh
Cc1cc(C)nc(SCC(=O)NC2=NC(=O)C(C)S2)n1 (stereo unspecified) | 0.79 | i
CC(C(=O)N1CC2(C)CC1CC(C)(C)C2)N1C(=O)c2ccccc2C1=O (stereo unspecified) | -0.31 | i

Continuation:
KCNQ2 inh baseline | KCNQ2 inh | SMILES
0.08 | i | Cc1cccc(C)c1NC(=O)C1(N(Cc2ccco2)C(=O)CC2NC(=O)NC2=O)CCCCC1 (stereo unspecified)
-1.1 | i | COCCCNC(=O)COc1ccc(Br)cc1Cl
-1.1 | i | O=C(N1CCCCCC1)N1CCN(S(=O)(=O)N2CCOCC2)CC1
-0.62 | i | COc1ccc(CCNC(=O)c2ccc3c(c2)OCCO3)cc1
0.84 | i | CCN1C(=O)[C@@H]2[C@@H](c3ccc(-c4ccc(OC)cc4)cc3)N3CCC[C@@]3(C(=O)OC)[C@@H]2C1=O
0.15 | i | CC1CCCc2sc3nc(NCc4ccco4)n4ncnc4c3c21 (stereo unspecified)
-0.64 | i | Cc1nc2ccccc2n1C1CCN(CC(=O)NCc2ccc(F)cc2)CC1
1.5 | i | Cc1ccc2[nH]c3c(c2c1)CN(C(=O)CN1CCN(c2cccc(C)c2C)CC1)CC3
0.74 | i | COc1ccc(N(CC(=O)Nc2ccc3c(c2)OCO3)S(=O)(=O)c2c(C)nn(C)c2C)cc1
-1.2 | i | NC(=O)COC(=O)CCSc1ccc(Cl)cc1

Assay outcomes deposited in PubChem by Johns Hopkins Ion Channel Center.
